Screening results as filed in PubChem BioAssay.
LANA-H2B inh – blocks KSHV LANA binding to histone H2A/H2B; 320,000 tested, 0.6% active; inhibition, % (test concentration not listed); AID 2629; cell-free LANA-H2A/H2B peptide, fluorescence polarization; in the data active means inhibition mostly above about 10%, no sharp cut-off; inactive means mostly below about 6.7%;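 further: stock transfer was 7.5 nL into about 10 µL; 0% = median of vehicle wells and 100% = median of positive control wells; one replicate is shown; the record names a cut of 25% in any replicate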
Calb FLC – C. albicans growth modulation with fluconazole. C. albicans CaCi-2 (fluconazole-resistant clinical isolate) + fluconazole, Alamar Blue growth, 48 h. growth inhibition, % (test concentration not listed). 300,000 tested, 0.57% active;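 active means most replicates above 75%; inconclusive means exactly half above 75%; inactive means most below 75%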;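 further: all wells also contain fluconazole at 8 µg/ml as a sub-toxic cotreatment; 0% = median of DMSO wells and 100% = median of geldanamycin control wells; wells of about 8 µL received 7.5 nL stock; the first replicate is given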
UCH37 DUB inh – human UCH37 deubiquitinating enzyme inhibition | Q9Y5K5 | purified proteasome/UCH37, Ub-AMC cleavage fluorescence | inhibition, % (concentration not given with the values) | 330,000 tested, 0.33% active;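 active means mean of two replicates above 20%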;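 further: 0% = compound-free wells with enzyme and 100% = wells lacking proteasome; stock transfer was 100 nL into about 20 µL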
Target sequence (Q9Y5K5 whole entry, looked up): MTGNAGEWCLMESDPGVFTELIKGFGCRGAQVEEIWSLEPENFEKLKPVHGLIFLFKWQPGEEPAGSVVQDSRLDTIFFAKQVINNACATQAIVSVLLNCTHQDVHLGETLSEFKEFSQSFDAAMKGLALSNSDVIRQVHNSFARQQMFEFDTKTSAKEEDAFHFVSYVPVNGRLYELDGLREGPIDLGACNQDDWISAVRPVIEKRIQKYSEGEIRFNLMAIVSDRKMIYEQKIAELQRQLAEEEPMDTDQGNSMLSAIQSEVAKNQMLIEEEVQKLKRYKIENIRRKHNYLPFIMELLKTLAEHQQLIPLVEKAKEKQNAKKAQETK
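Reagent: Ub-AMC substrate; assay system: Proteasome-associated human UCH37 deubiquitinase; controls: no-proteasome and no-compound wells; read-out: % inhibition of Ub-AMC cleavage fluorescence; timing: 30 min preincubation with enzyme, 25 min cleavage at room temperature; signal: AMC fluorescence from Ub-AMC cleavage, excitation 355 nm, emission 460 nm; buffer or medium: Tris-HCl pH 7.4 plus ovalbumin, ATP-MgCl2, DTT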
A1 inh – inhibitors of the anti-apoptotic protein A1, read as caspase activation; MEF A1-2A-BIM cells, Caspase-Glo 3/7 luminescence, 3 h; percent of clofoctol response, vehicle zero; caspase activation, % (concentration not given with the values); 330,000 tested, 0.066% active; AID 2462;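 active means over half of replicate activation scores above 10%, or exactly half above 10 with the replicate mean above 10; inconclusive means replicate mean below 10 yet half the replicates above 10; inactive means over half of replicates below 10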;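 further: wells of about 30 µL received 50 nL stock; many hits fall short of the cut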
Beta cell apopt – beta cell apoptosis inhibition. INS-1E cytokine-induced death, ATP luminescence, 48 h; percent of positive-control rescue, neutral wells zero. protection from apoptosis, % (test concentration not listed). 300,000 tested, 0.8% active. AID 435005;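 active means all replicates at 75% or more, or half of them and the mean; inconclusive means half reach 75% but not the mean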;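 further: 0% = cytokine-treated negative control wells and 100% = positive control rescue; higher means more ATP so stronger rescue from cytokine killing; wells of about 40 µL received 100 nL stock; the first replicate is given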
T cruzi inh – T. cruzi replication inhibition | AID 1885 | 300,000 tested, 1.4% active | T. cruzi beta-gal in NIH3T3, luminescence, 90 h | inhibition, % (no concentration beside the values);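 active means mean inhibition across valid replicates above about 55%, limit read from the data; inconclusive means mean below that limit but half or more replicates reach it; inactive means mean below it, under half of replicates reach it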;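 further: signal also drops with host cell toxicity which is not excluded here; 0% = plate median of DMSO wells and 100% = zero luminescence signal; higher percent means less beta-gal luminescence so fewer parasites; stock transfer was 50 nL into about 50 µL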
B2AR ag – human beta-2 adrenergic receptor agonism by FAP; P07550; Am2.2-beta2AR cells, FAP receptor internalization, flow cytometry; reference of the scale not given here; response, % (test concentration not listed); 340,000 tested, 0.43% active;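 active means response above a set limit, near 3 SD of response in nonfluorescent compounds, cut at about 42% in these data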;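 further: stock transfer was 100 nL into about 11 µL; a reference agonist was the positive control; negative values mostly stem from fluorescent compounds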
Target sequence (P07550 whole entry, looked up): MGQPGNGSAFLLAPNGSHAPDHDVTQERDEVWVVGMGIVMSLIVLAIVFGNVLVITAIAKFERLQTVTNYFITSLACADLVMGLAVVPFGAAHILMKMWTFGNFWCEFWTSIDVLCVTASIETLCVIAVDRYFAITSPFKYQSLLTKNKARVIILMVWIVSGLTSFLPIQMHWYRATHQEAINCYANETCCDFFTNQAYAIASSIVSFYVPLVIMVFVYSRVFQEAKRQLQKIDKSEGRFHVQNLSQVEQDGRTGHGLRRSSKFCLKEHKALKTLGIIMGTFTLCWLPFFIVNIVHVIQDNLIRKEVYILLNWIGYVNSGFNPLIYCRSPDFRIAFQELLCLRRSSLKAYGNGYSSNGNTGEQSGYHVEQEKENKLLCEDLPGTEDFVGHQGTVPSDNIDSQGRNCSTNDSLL
RanGTP-Impb inh – disruptors of Ran-importin-beta complex formation – biochemical, FRET, CFP-Ran, YFP-importin-beta, homogeneous, primary screen; cell-free CFP-Ran/YFP-importin-beta FRET ratio; inhibition, % (concentration not given with the values); 300,000 tested, 1.1% active;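 active means most replicates above 15%; inconclusive means exactly half above 15%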;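 further: 0% = DMSO wells and 100% = Ran loaded with GDP instead of GTP; wells of about 40 µL received 100 nL stock; the first replicate is given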
The depositor's hits bear a star; ? = inconclusive; · = not tested or not shown.

SMILES	LANA-H2B inh	Calb FLC	UCH37 DUB inh	A1 inh	Beta cell apopt	T cruzi inh	B2AR ag	RanGTP-Impb inh
COC(=O)C1C2c3ccccc3C(c3ccccc32)C1C(=O)OC (configuration not stated)	5.5	-20	6.1	-0.3	-8	9	0	-6.2
Clc1ccccc1CN1CCN(c2ccccc2)CC1	8.0	-13	3.7	0.6	·	15	14	-2.8
O=C(NC(=S)Nc1ccc(S(=O)(=O)Nc2nccs2)cc1)c1ccc(F)c(F)c1	-2.8	-5	6.3	?	2	-2	-5	1.3
CCCCn1c(O)c(C(C)=NCc2cccnc2)c(=O)[nH]c1=O	-0.7	-4	4.5	0.8	-4	-6	-51	1.9
Cn1cc(C(O)CN2CCCCC2)c2ccccc21 (configuration not stated)	4.2	-5	0.9	0.0	-2	8	-7	-2.5
CCOP(=O)(OCC)c1cccc(OP(=O)(c2cccc([N+](=O)[O-])c2)c2cccc([N+](=O)[O-])c2)c1	1.5	1	5.0	0.4	0	-15	6	3.9
Cn1c(O)c(C=NCCCN2CCCC2=O)c(=O)n(C)c1=O	0.2	-5	2.5	-0.3	·	1	3	1.5
COc1cccc(C(=O)C2CCCN(Cc3ccccn3)C2)c1 (configuration not stated)	1.4	-26	-0.5	1.0	-5	-12	4	-1.2
COc1ccc(NC(=O)CN2CC=C(c3ccccc3)CC2)cc1S(=O)(=O)N1CCOCC1	-2.6	-4	-2.1	0.5	2	19	-3	5.5
COC(=O)c1c(C)n(Cc2ccccc2)c2ccc(O)cc12	-0.9	17	2.1	-0.8	·	22	8	2.8
CC1=CC2/C=C(\C)CCC(O)C(O)/C=C/C(=O)C23C(=O)NC(CC(C)C)C3C1C (configuration not stated)	3.4	-1	·	0.4	106*	67*	40	1.9
O=C(O)c1nn(Cc2ccc(Cl)cc2Cl)c2ccccc12	-4.9	·	2.4	-0.8	2	-1	8	-0.8
CCN(CC)CCCN=Cc1c(O)n(-c2cccc(C)c2C)c(=O)[nH]c1=O	3.0	-7	1.0	0.0	-5	10	-6	9.6
CCN(CC)c1ccc(/C=C2/C(=O)NC(=O)N(CC3CCCO3)C2=O)cc1 (configuration not stated)	1.8	9	2.2	-0.6	-8	10	13	4.3
CC1(C)CC(=O)C=C(NCCN2CCN(C(=O)Cc3ccc(Cl)cc3)CC2)C1	2.3	21	0.6	1.0	-1	20	-12	5.7
CCCCn1c(=O)c(C=Nc2cc([N+](=O)[O-])ccc2OC)c(O)n(CCCCl)c1=O	-0.3	9	2.9	-0.6	1	3	0	0.9
CN1CCN(c2ccc(C(F)(F)F)cc2N)CC1	2.4	-21	-1.5	-0.2	0	43	4	3.5
COC(=O)C1=C(c2cc3ccccc3s2)C[C@@H]2CC[C@H]1N2C(=O)NCC1CC1	-2.6	-1	0.6	-1.3	·	5	7	-2.3
O=C(N=Nc1c(O)[nH]c(=O)[nH]c1=O)C1COc2ccccc2O1 (configuration not stated)	-3.6	24	32*	-0.3	-3	-21	-2	0.9
CSc1ccc(CN2CCN(C(=O)Cc3ccccc3)CC2)cc1	1.1	-7	2.9	0.0	10	-11	-1	-0.4
Cn1cc[n+](C)c1P(=S)(c1ccccc1)c1ccccc1	-3.4	-30	3.1	-0.3	1	-8	-5	·
CCCS(=O)(=O)N1CCCC(C(=O)N2CCC3(CC2)OCCO3)C1 (configuration not stated)	-3.5	1	4.5	-0.1	-6	0	-3	-2.4
FC(F)(F)c1ccccc1NC1=NCCCS1	-4.8	-1	0.9	0.0	-8	-13	11	2.0
C=CCN1C(=O)C2(C(C(=O)OCC)=C(N)Oc3c2c(=O)oc2ccccc32)c2ccccc21 (configuration not stated)	-0.4	-5	1.0	-0.6	-7	-4	-1	-0.3
O=C(O)CCn1cc(C=C2C(=O)NC(=S)NC2=O)c(-c2cccc(Br)c2)n1	-2.1	1	2.4	1.1	·	-9	-2	0.9
Cc1ccccc1-n1c(C)nc2ccccc2c1=O	11	3	6.8	-0.5	-6	-17	-3	-7.0
CC1(C(=O)O)CCCC2(C)c3cc(O)ccc3CCC12 (configuration not stated)	2.6	0	1.7	0.4	-4	-14	-3	1.6
N#CCCn1cc(C(=O)Nc2ccc(F)cc2)c(-c2ccccc2)n1	1.3	0	3.2	0.2	-3	8	-6	0.5
O=C(COC(=O)Cc1ccccc1)NC12CC3CC(CC(C3)C1)C2	0.4	-31	0.1	0.4	-4	-8	-6	4.0
COc1cc2c(cc1OC)[C@@H]1C(=O)c3ccc4c(c3O[C@@H]1CO2)C[C@H](C(C)C)O4	5.8	2	·	-1.0	133*	-20	-11	7.3
CCC1=CCN(CCc2c(C)[nH]c3ccccc23)CC1	-2.1	-6	1.6	0.3	-5	17	-8	4.4
CC(C)=CCC12CN3CCN(CC(C3)C1=O)C2	-1.9	-6	4.0	-1.2	-3	-7	-11	3.3
Cc1ncc([N+](=O)[O-])n1CCOc1nonc1N	-3.9	-15	2.3	0.1	-2	-6	0	-0.4
COc1ccc(O)c(CN2CCCC(C(=O)c3ccccc3SC)C2)c1 (configuration not stated)	3.8	-25	4.1	0.4	-5	5	7	?
O=[N+]([O-])c1cc(F)c(N2CCCC2)cc1N1CCNCC1	-3.0	5	11	-0.2	2	4	·	-3.3
C=Cn1ccnc1P(=S)(c1ccc(N(C)C)cc1)c1nccn1C=C	-1.2	-2	6.6	-0.2	-7	2	-11	-1.9
CCC(=NC1CC1)c1c(O)n(C2CCCCC2)c(=O)[nH]c1=O	1.4	23	-1.5	0.0	-5	-15	-8	-2.2
c1ccc(C2N3CCCN23)cc1 (configuration not stated)	0.8	-7	0.9	1.5	·	-7	3	-2.1
COc1ccc(CCNCC2CCCO2)cc1 (configuration not stated)	-3.3	-2	-0.7	0.9	·	-15	-9	4.5
O=Cc1cn(Cc2c(F)cccc2Cl)c2ccccc12	-9.7	23	2.1	-0.1	-6	-5	3	-1.6
COc1ccc(/C=C2/C(=O)N(Cc3ccco3)C(=O)N(C(C)C)C2=O)cc1	1.9	·	7.4	-0.2	-7	-3	3	·
COc1ccccc1N1CCN(Cc2ccc3c(c2)OCO3)CC1	-2.0	-30	3.4	1.0	-3	5	-4	5.2
O=Cc1cn(Cc2ccc(F)cc2)c2ccccc12	-6.2	-6	3.5	0.9	-3	-12	2	4.1
CCCCCn1c(=O)c(C(=O)Nc2ccccc2)c(O)c2ccccc21	2.3	21	-2.9	0.2	46	-21	6	3.7
COC(=O)C1=C(c2ccc(F)cc2F)C[C@@H]2CC[C@H]1N2C(=O)NC1CC1	1.0	·	0.2	-0.4	-2	·	-3	·
Cc1cc(/C=C2\C(=O)NC(=O)N(c3cccc(F)c3)C2=O)c(C)n1-c1cc(C(=O)O)cc(C(=O)O)c1	0.4	-13	6.4	0.8	-15	-21	0	7.6
C[C@@]1([C@@H](NP(=O)(c2ccccc2)c2ccccc2)c2ccccc2)C[C@H]1CCO	-2.8	36	-1.6	0.1	-3	1	1	-1.2
CCCC(=O)c1cc(CP(=O)(OCC)OCC)oc1C	0.4	-12	0.7	-0.1	-1	-2	-4	2.1
CC(C)(C)NC(=O)CN1CCCN(C(=O)COc2ccc(Cl)c3ccccc23)CC1	5.8	·	2.8	0.2	-3	·	6	·
Cc1ccc(C2SCC(=O)Nc3c2c(=O)[nH]n3C2CCOC(C)(C)C2)cc1 (configuration not stated)	2.7	-4	4.2	0.4	-7	0	5	-0.6
Cc1ccc(N)c(C)c1	37*	·	1.2	0.0	-3	·	0	·
C[C@@H]1O[C@@H](O[C@@H]2C=C3CCC4C(CC[C@]5(C)[C@@H](c6ccc(=O)oc6)CC[C@]45O)[C@@]3(C)CC2)[C@H](O)[C@H](O)[C@H]1O (some centres not stated)	-0.7	·	-0.2	0.2	12	·	5	·
CC(=O)O[C@H]1CCC2C3CCC4=CC(=O)CCC4=C3C=C[C@@]21C (some centres not stated)	4.5	13	-26	0.5	-10	-1	12	32*
CC(=O)Nc1ccc(C(=O)OCC(=O)Nc2ccc(Cl)cc2C(=O)c2ccccc2)cc1	-4.3	-2	-0.7	-0.2	2	10	4	1.5
CCOC(=O)c1c(N)n(CCN2CCOCC2)c2nc3ccccc3nc12	2.0	0	-475	0.1	-1	-15	-11	?
CCC1(c2cccc(O)c2)CCCCN(C)C1 (configuration not stated)	4.3	·	1.1	1.4	-1	·	1	·
CCn1c(C)c(C(=O)NCCc2ccccc2)c2cc(OC)ccc21	-0.5	5	-0.5	1.4	-6	6	1	-2.4
CCCn1cc(C(=O)O)cn1	0.1	33	0.6	-0.2	-10	-18	5	?
CC(=O)N(C1=NCCCS1)c1ccc(F)cc1	-2.7	-18	2.2	-0.4	2	0	-2	-2.5
CNCCc1c[nH]c2ccccc12	-1.5	·	2.1	0.7	-11	2	·	-0.4
(cont.)
SMILES	LANA-H2B inh	Calb FLC	UCH37 DUB inh	A1 inh	Beta cell apopt	T cruzi inh	B2AR ag	RanGTP-Impb inh
CC(C)c1oc(=O)cc2c1[C@@H](O)[C@H]1OC(=O)[C@@]3(C)CC[C@@H](O)[C@@]2(C)C13 (some centres not stated)	-4.2	-5	3.9	0.8	-11	7	84*	4.6
COc1ccc2ccc(O)c(CN3CC=C(c4ccccc4)CC3)c2c1	-0.4	-4	-0.1	0.5	3	-22	7	-8.1
NS(=O)(=O)c1ccc(N=Cc2c(O)n(-c3ccccc3)c(=O)[nH]c2=O)cc1	1.2	0	7.4	0.2	-3	-6	10	8.1
O=C(Nc1ccc2c(c1)OCO2)c1cn(Cc2ccc(F)cc2)nn1	-1.2	6	-3.1	-0.8	2	3	-3	7.8
CCOP(=O)(OCC)C1(C(=O)O)CCCC1	2.1	-4	6.5	0.9	-3	1	-3	2.0
Cc1nc2cc(-c3ccccc3)nn2c(C)c1CCC(=O)N1CCC2(CC1)OCCO2	-0.2	31	-17	1.1	-4	6	-4	4.6
Cc1cc(/C=C2\C(=O)NC(=O)N(c3ccccc3)C2=O)c(C)n1-c1ccc(C(=O)O)c(Cl)c1	-2.5	4	8.1	0.8	-3	-10	2	3.9
COc1cccc(OC)c1CN1CCCC(C(=O)c2cccc(Cl)c2)C1 (configuration not stated)	4.8	-3	4.2	0.7	·	19	0	-3.8
N=c1ccccn1Cc1ccccc1	0.2	-2	-0.3	0.7	4	-7	-7	1.3
Cc1ccc2c(c1)C1CN(C)CCC1N2C(=S)Nc1cccnc1 (configuration not stated)	4.1	5	5.3	0.0	1	5	5	-2.8
CCOc1cc(CNC(C)C(O)c2ccccc2)cc(Cl)c1OCC (configuration not stated)	0.6	-6	2.6	-1.4	-4	-9	0	-0.7
CC1CCCN(C(=O)CN2C3CCC2CC(O)(c2ccc(F)cc2)C3)C1 (configuration not stated)	-4.2	6	0.0	-0.3	-1	-15	1	4.1
CCC(=NCc1cccnc1)c1c(O)n(C2CCCCC2)c(=O)[nH]c1=O	-1.8	7	1.8	-0.7	3	-13	-14	-0.5

Not all compounds are listed; count on the stated rates, not on these rows.
